VDR inhibitor: blocks the human vitamin D receptor | VDR-SRC2-3 peptide fluorescence polarization, 2 h | Potency, µM, for inactives: max response, negative = inhibition, actives largely listed as inhibitors | hit rate 0.93% among 400,000 | AID 504847; active = well fitted inhibition curve with a large enough effect; inconclusive = small, poorly fitted or top-dose-only effect, or another doubt; inactive = no such curve, though single readings can be large or run the other way; note: series mostly up to about 120 µM
Target sequence (P11473 whole entry, looked up): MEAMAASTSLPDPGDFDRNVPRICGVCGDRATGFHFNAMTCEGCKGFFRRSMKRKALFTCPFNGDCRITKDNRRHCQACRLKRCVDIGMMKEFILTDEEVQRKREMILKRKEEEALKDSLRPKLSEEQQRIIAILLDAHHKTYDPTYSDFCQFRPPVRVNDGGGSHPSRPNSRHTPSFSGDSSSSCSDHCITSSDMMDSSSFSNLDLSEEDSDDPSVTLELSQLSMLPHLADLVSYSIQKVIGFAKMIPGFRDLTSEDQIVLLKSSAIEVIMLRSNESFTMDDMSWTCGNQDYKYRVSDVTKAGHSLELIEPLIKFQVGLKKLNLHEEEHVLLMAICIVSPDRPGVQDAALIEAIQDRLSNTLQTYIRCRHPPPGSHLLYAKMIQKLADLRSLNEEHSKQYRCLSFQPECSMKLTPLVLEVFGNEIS
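Inhibition of the VDR/SRC2-3 peptide interaction is quantified by fluorescence polarization. Compounds (23 nl, pintool) incubate with the reagents for 2 hours at ambient room temperature.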
Active calls of the source: *; u = inconclusive; ! = not active in a repeat. % is set by controls: 0 for no effect and ±100 for the full control effect; potency is the fitted concentration of half-maximal effect.

VDR inhibitor | Molecule
2.6% | O=C(NCc1ccccc1)C1CC(=O)N(c2ccc(OCC(=O)N3CCOCC3)cc2)C1 (stereo not given)
9.2% | CCC(=O)N/N=c1/sc2ccccc2n1C
-5.3% | O=C1Cc2cc(NS(=O)(=O)c3ccc([N+](=O)[O-])cc3)cc3c2N1CCC3
4.2% | O=C(O)CC(NCc1ccco1)C(=O)OCCc1ccccc1 (stereo not given)
5.4% | CC(=O)NC1C(OCc2ccccc2)OC2COC(c3ccccc3)OC2C1OCC(=O)O (stereo not given)
9.9% | COc1ccc(NC(=O)NNC(=O)C(C)Oc2ccc(C(C)C)cc2)c(OC)c1 (stereo not given)
13.8% | COC(=O)c1ccccc1NC(=O)Cn1cnc2ccc(S(=O)(=O)N3CCC(C)CC3)cc2c1=O
13.5% | Cc1ccc(-c2nn(-c3ccccc3)cc2CNCc2ccccc2)cc1
-16.4% | CCC1=C(OC(=O)N(CC)CC)N2C(=O)OC(=NCC3CC3)[C@]2(Cc2ccccc2)[C@H]2C1=CC[C@H]1C(=O)N(CC)C(=O)[C@H]12
4.4% | COc1ccc(-c2cc(-c3ccc4c(c3)NC(=O)CO4)nc3c2COc2ccc(C)cc2-3)cc1
-0.1% | COc1ccc(-n2c(=S)[nH]c3ncccc3c2=O)cc1
-10.1% | CC(=O)Nc1ccc(S(=O)(=O)/N=C2\SCCN2S(=O)(=O)c2ccc(NC(C)=O)cc2)cc1

VDR inhibitor | Molecule
16.6% | COc1ccc(-c2cc(C(C)=O)c(C)n2CCC(=O)Nc2cccc(C)c2C)cc1
3.8% | Cc1ccc2c(c1)C(Cc1ccccc1F)C(=O)N2 (stereo not given)
16.4% | CC(C)=CCCC(C)CN1CCC(n2nccc2NC(=O)c2ccc3c(c2)OCO3)CC1 (stereo not given)
-22.4% | COC(=O)c1ccc(CN2[C@H](C(=O)OC)C[C@@]3(O)[C@@H](O)[C@@H](O)[C@@H](O)C[C@@H]23)cc1
-0.1% | CCN(CC)C(=O)c1nc[nH]c1C(=O)N1CCc2ccccc2C1
1.2% | CCC1S/C(=N/N=C/c2ccco2)N(Cc2ccccc2C)C1=O (stereo not given)
13.2% | CC(CS(=O)(=O)c1cccc2cccnc12)N1CCCCC1 (stereo not given)
-0.4% | Cc1cc(C)nc(SC(C)C(=O)O)n1 (stereo not given)
-15.1% | CC(C)(C)OC(=O)CNC(=O)c1nc[nH]c1C(=O)NCC(=O)OC(C)(C)C
16.8% | Cc1ccc(S(=O)(=O)N(CC(=O)N/N=C/c2cccc(C)c2)c2cccc3cccnc23)cc1
-28.8% | CC(=O)C(c1ccccc1)C(c1ccccc1)C(C)[N+](=O)[O-] (stereo not given)
9.1% | COc1ccc(NC(=O)c2cc(C)nc3ccccc23)c(OC)c1

VDR inhibitor | Molecule
22.9% | CCOc1ccc(S(=O)(=O)N2CCCC(C(=O)NCCN3CCOCC3)C2)cc1Cl (stereo not given)
-8.7% | Cc1nc2nc(SCC(=O)N(C)Cc3ccccc3)nn2c(C)c1Cc1ccccc1Cl
9.2% | CC1(c2ccccc2)NC(=O)N(CC(=O)Nc2ccc(S(=O)(=O)NC3=NCCCCC3)cc2)C1=O (stereo not given)
-7.6% | CC(C)(C)C1CCc2c(sc(NC(=O)c3cc(-c4ccc(F)cc4)on3)c2C#N)C1 (stereo not given)
-15.9% | CC1=C(C(=O)OCC2CCCCC2)C(c2ccc(Cl)cc2)CC(=O)N1 (stereo not given)
-11.8% | CN(C)C(=O)c1ccc(-c2nc(NCc3cccs3)c3ccccc3n2)cc1
-9.7% | COc1cccc(N2CCN(C(=O)CCNS(=O)(=O)c3ccc4c(c3)c(=O)n(C)c(=O)n4C)CC2)c1
-3.5% | CC(=O)N1N=C(c2ccccc2OC(=O)/C=C/c2ccccc2)CC1c1ccccc1 (stereo not given)
-1.2% | O=C(N/N=C/c1ccncc1)c1cc2c(ccc3ccccc32)o1
0.2% | CCOc1cc(S(=O)(=O)Nc2ccccc2CC)ccc1Cl
u | CCCN(C(=O)c1ccc(N2CCCC2=O)cc1)C1CCS(=O)(=O)C1 (stereo not given)
-21.8% | Cc1ccc(CN2C(=O)CSC2c2cccnc2)cc1 (stereo not given)

VDR inhibitor | Molecule
-5.9% | Cc1ccc(C)c(Nc2nc(-c3ccncc3)nc3ccccc23)c1
-12.1% | COCCSc1nc2sc3c(c2c(=O)n1-c1ccccc1)CCN(C)C3
-5.9% | N#Cc1ccc(NC(=O)c2cc(S(=O)(=O)N3CCOCC3)ccc2N2CCCC2)cc1
6.2% | COc1ccc(NC(=O)Cn2nnc3ccccc32)c([N+](=O)[O-])c1
13.2% | C=C(C)Cn1c(-c2ccccc2)nc2ccccc21
-11.8% | COc1ccc(CCNC(=O)CCCc2ccccc2)cc1
-10.1% | COc1ccc(Cl)cc1NC(=O)COC(=O)c1c(-c2ccccc2)noc1C
-21.3% | CC(C)CCC(CCNCc1ccccn1)c1ccc(Cl)cc1 (stereo not given)
-3.3% | Cc1sc2nc(SCC(=O)N3CCOCC3)[nH]c(=O)c2c1-c1ccccc1
-11.0% | COC(=O)c1ccc(NC(=O)COC(=O)COc2cccc3c2OC(C)(C)C3)cc1
3.4% | NC(=O)c1nsc(C(=O)N(CC(=O)NC2CCCCC2)c2ccc(Cl)cc2)c1N
0.2% | CCn1c(CCNC(=O)c2ccc(OC)cc2)nnc1SCc1ccc(Cl)c(Cl)c1

VDR inhibitor | Molecule
-8.3% | CCc1ccc(CNC(=O)C2CCN(S(=O)(=O)N3CCC(C)CC3)CC2)cc1
5.9% | CCc1nnc2c(NCc3ccc(F)cc3)nc3ccccc3n12
5.3% | O=C1CN(C(=O)CNCc2ccccc2Cl)c2ccccc2N1
14.2% | C/C(=N\NC(=O)CSCc1ccccc1Cl)c1cccc(NC(=O)c2ccccc2)c1
10.7% | CCc1ccccc1NS(=O)(=O)c1ccc(NC(=O)N2CCCC2)cc1
-10.8% | Cc1cccc(N/C(N)=N/c2nc(C(F)(F)F)cc(C(F)(F)F)n2)c1
14.4% | Cc1cc(C)n2nc(SCC(=O)N/N=C/c3ccc(F)cc3)nc2n1
-22.5% | Cc1cccc(-[n+]2c(C)cc(C)c3c(=O)[nH]c(=O)[nH]c32)c1
5.0% | CCC(C)C(NC(=O)c1ccccc1NC(=O)c1ccc(OC)cc1)C(=O)NCc1ccco1 (stereo not given)
-3.4% | COCCCNCCCOc1ccc(C)cc1Br
0.1% | COc1cccc(NC(=O)CN(C)C(=O)CCc2nc3sc4c(c3c(=O)[nH]2)CCCC4)c1
9.9% | CCOc1ccc(Sc2cc(C(=O)NCCCOC)c3ccccc3n2)cc1

VDR inhibitor | Molecule
10.4% | COc1ccc(C2CC(=O)c3c(C)nc(N4CCN(Cc5ccccc5)CC4)nc3C2)cc1OC (stereo not given)
-8.8% | O=[N+]([O-])c1cccc(-c2nc(-c3ccccc3)no2)c1
-0.1% | CCCCCn1c(=O)[nH]c2cc(C(=O)N3CCN(c4ccc(F)cc4)CC3)ccc2c1=O
-2.2% | COc1ccc(C(=O)N(Cc2ccccc2)c2cccc(C)c2)cc1S(=O)(=O)N1CCOCC1
-11.8% | COc1ccc(CNC(=O)c2cc(C3CC3)nc3c2cnn3C(C)C)cc1OC
-24.7% | O=C(NC1CCCCCC1)c1cccnc1Sc1ccccc1
1.8% | COc1ccc(N/C=C(\C#N)c2nc3ccccc3n2C)c(OC)c1
-12.6% | O=C1Nc2cc3c(cc2C1=O)sc1ccccc13
-1.8% | CN(Cc1ccccc1)C(=O)c1ccc(Cl)c([N+](=O)[O-])c1
-9.5% | NC(=O)C1CCN(CC(=O)NCc2ccccc2)CC1
-15.8% | CC12CN3CC(C)(CN(C1)C3c1ccc([N+](=O)[O-])o1)C2 (stereo not given)
-4.7% | Cc1cc(NC(=O)C2CC(=O)N(c3ccccc3C)C2)no1 (stereo not given)

Ordered by the number under VDR inhibitor (descending): three of the compounds above
VDR inhibitor | Molecule
1.8% | COc1ccc(N/C=C(\C#N)c2nc3ccccc3n2C)c(OC)c1
-9.5% | NC(=O)C1CCN(CC(=O)NCc2ccccc2)CC1
-15.8% | CC12CN3CC(C)(CN(C1)C3c1ccc([N+](=O)[O-])o1)C2 (stereo not given)

(more compounds)
VDR inhibitor | Molecule
-11.2% | Cc1cc(NC(=O)c2ccc3c(c2)C(=O)N(Cc2ccccc2)C3=O)no1
-9.9% | O=C(CSc1nc(=O)n(CCCN2CCOCC2)c2c1CCC2)Nc1ccc(F)cc1
12.9% | Cc1c(C(=O)N2CCC(c3nc4ccccc4s3)CC2)oc2ccc(Cl)cc12
-5.9% | O=C1CCCN1c1ccc(S(=O)(=O)N2CCCCC2)cc1[N+](=O)[O-]
0.1% | COc1ccc(S(=O)(=O)NCCSc2ccc(C)cc2)cc1OC
5.7% | COc1ccc(CN(C)C(=O)C23CC4CC(CC(Cl)(C4)C2)C3)c(OC)c1OC
-13.4% | Nc1ccc(-n2nc3ccccc3n2)cc1
4.6% | COc1ccc(-n2nc3c(N4CCCC(C(=O)NCCc5ccc(C)cc5)C4)nnc(C)c3c2C)cc1 (stereo not given)
18.6% | CCOc1ccc2nc(NC3=NC(C)(C)C=C(C)N3)nc(C)c2c1
-9.0% | COc1ccc(NC(=O)CN(C)C(=O)/C=C/c2cn(-c3ccccc3)nc2-c2cccs2)cc1
2.5% | Cc1cccc(OC(=O)c2cc(-c3ccc(C)c(C)c3)on2)c1
0.4% | O=C(N/N=C/C(Br)=C/c1ccccc1)c1ccc([N+](=O)[O-])cc1

Reformatted tab-delimited: part of the list above
molecule	VDR inhibitor
COc1ccc(NC(=O)CN(C)C(=O)/C=C/c2cn(-c3ccccc3)nc2-c2cccs2)cc1	-9.0%
O=C(N/N=C/C(Br)=C/c1ccccc1)c1ccc([N+](=O)[O-])cc1	0.4%
Cc1cc(NC(=O)c2ccc3c(c2)C(=O)N(Cc2ccccc2)C3=O)no1	-11.2%
COc1ccc(-n2nc3c(N4CCCC(C(=O)NCCc5ccc(C)cc5)C4)nnc(C)c3c2C)cc1 (stereo not given)	4.6%
O=C1CCCN1c1ccc(S(=O)(=O)N2CCCCC2)cc1[N+](=O)[O-]	-5.9%
O=C(CSc1nc(=O)n(CCCN2CCOCC2)c2c1CCC2)Nc1ccc(F)cc1	-9.9%

Next section.
VDR inhibitor | Molecule
-12.4% | C=CCCCCCCCCC(=O)N1CCN(c2cc3c(cc2F)c(=O)c(C(=O)O)cn3CC)CC1
16.6% | COc1ccc(NC(=O)Nc2cccc3c2O[C@H](CN(C)C(=O)Nc2ccc(C(F)(F)F)cc2)[C@@H](C)CN([C@H](C)CO)C3=O)cc1
u | C[C@@H]1CC=C[C@H]2[C@H]1C(=O)N(Cc1ccccc1)[C@H]2c1ccc(-c2ccoc2)cc1F
-7.5% | CCOC(=O)c1c(NC(=O)c2ccn(CC)n2)sc2c1CCC2
u | COc1cccc(C(C2C(=O)CC(C)(C)CC2=O)C2C(=O)CC(C)(C)CC2=O)c1
-17.0% | CN(C)c1nc(N(C)C)n(C(=O)c2cccs2)n1
2.8% | COc1ccc(CCNC(=O)c2ccc(Cn3c(=O)c4ccccc4n(Cc4cc(C)ccc4C)c3=O)cc2)cc1OC
8.9% | CCN(c1ccccc1)S(=O)(=O)c1ccc(F)c(C(=O)O)c1
-5.1% | O=C(COC(=O)C1CCC1)Nc1ccc(OC(F)F)cc1
2.9% | O=C(NCC(=O)N(CC1CCCO1)C(C(=O)NC1CCCC1)c1ccc(F)cc1)c1ccco1 (stereo not given)
-14.3% | Cc1ccccc1NC(=O)COC(=O)c1c[nH]c(=O)[nH]c1=O
-5.9% | CN1CCN(CP(=O)(N2CCOCC2)N2CCOCC2)CC1

VDR inhibitor | Molecule
7.8% | O=C(NCc1ccc2c(c1)OCO2)C1CCN(c2ncccn2)CC1
-9.0% | CN(C)c1ccc(CNc2ccc3c(c2)ncn3C(C)(C)C)cc1
9.4% | COc1cc(CN(C(=O)c2ccc(C)cc2)c2ccccn2)cc(OC)c1OC
4.5% | O=C(Nc1cc(Cl)cc(Cl)c1)c1ccc(F)c(S(=O)(=O)N2CCCC2)c1
u | CCCCCSc1nc2c(c(=O)[nH]c(=O)n2C)n1CC
-3.1% | CCOc1ccc(NC(=O)c2ccc(C#CC(C)(C)O)cc2)cc1
1.7% | N#Cc1c(Nc2ccccc2)c(C=NCCN2CCOCC2)c[nH]c1=O
-3.4% | CC(C)COc1ccc(C(=O)NCC2(N3CCN(C)CC3)CCCCC2)cc1
-14.3% | O=C1CC(NS(=O)(=O)c2ccc([N+](=O)[O-])cc2)CN1c1ccc2c(c1)OCCO2 (stereo not given)
12.5% | CCCCN1C(=O)/C(=C/C=C2\Oc3ccccc3N2CC)SC1=S
13.4% | CCc1ccc(-n2c(=O)c3c(C)c(C(=O)N(C)C)sc3n(Cc3ccccc3F)c2=O)cc1
14.5% | COc1cc(C(=O)NCc2cc3cc(Cl)ccc3n2C)cc(OC)c1OC

VDR inhibitor | Molecule
2.3% | COC(=O)c1[nH]c2c(c1C(=O)OC)CCc1ccccc1-2
-7.2% | O=C(NCc1cc(Br)cc(Br)c1OC(=O)c1ccccc1[N+](=O)[O-])c1ccccc1
-15.6% | CCOC(=O)NC(=S)Nc1c(C)n(C)n(-c2ccccc2)c1=O
-2.6% | Cc1cc(C)n2[nH]c(=O)c(N=Nc3ccccc3)c2n1
1.6% | COC(=O)C1=C(C)NC(C)=C(C(=O)OC)C1c1cn(-c2ccccc2)nc1-c1ccco1
0.7% | CC(=O)N1CCc2cc(Br)cc(S(=O)(=O)NCCc3ccc(Cl)cc3)c21
31.6µM*! | CNC[C@H](O)c1ccc(O)c(O)c1
-5.1% | CCOC(=O)c1sc(=NC(=O)c2ccco2)n(C)c1C
-2.0% | O=C(NC1CCN(C(=O)c2ccccc2Br)CC1)c1ccccc1
-5.2% | Cc1ccc(C(=O)n2nnc3ccccc32)cc1[N+](=O)[O-]
15.5% | CCOc1ccccc1C(=O)NCc1ccc2c(c1)CCN2C(=O)c1ccccc1
-6.6% | Cc1ccc(NC(=S)N2CC(C)OC(C)C2)cc1C (stereo not given)
-11.5% | CCCC[n+]1ccn(-c2nc3c([N+](=O)[O-])cccc3n2C)c1
7.9% | NCCCC[C@@H](C(=O)N1CCNCC1)n1cc([C@@H](N)CO)nn1

An excerpt; count on the stated rates, not on these rows.
